High-throughput results deposited in PubChem BioAssay by Broad Institute.
rRNA inh HTS: reduced GFP signal of wild-type E. coli, primary screen, bacterial rRNA inhibitor project, GFP/RFP fluorescence, OD600, single point; E. coli WT GFP vs humanized-ribosome RFP mutants, 24 h; stronger effect = lower value; DMSO median 0, no signal -100; GFP signal change (wild-type ribosome), % (concentration not given with the values); 350,000 tested, 1.6% active;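 active = significant combined selectivity score with lowered wild-type GFP, culture density cut under 30%, mutant RFP and density less affected; inactive = any of these conditions unmet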; also: one replicate is shown; some compounds called inactive have numbers as strong as hits
rRNA inh HTS OD600: also measured in rRNA inh HTS; calls as there; OD600 change, %; measured here: OD600 growth;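 optical density of the mix in the first replicate; 0 = DMSO median and -100 = no signal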
rRNA inh HTS RFP: second read-out of rRNA inh HTS, no call of its own (marks repeat the call); RFP signal change, %; measured here: RFP humanized mutant strains;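 first replicate; 0 = DMSO median and -100 = no signal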
The depositor's hits bear a star.

`O=C(c1ccc(F)cc1)N1C[C@@H]2N[C@H](C1)C2c1ccc(-c2cncnc2)cc1` (stereo partly specified) gave rRNA inh HTS 1, rRNA inh HTS OD600 -4 and rRNA inh HTS RFP -0.9.
`Cc1cccc(-c2ccc([C@@H]3[C@@H](CO)N4C(=O)CN(C(=O)NC5CCCCC5)C[C@@H]34)cc2)c1` gave rRNA inh HTS -12, rRNA inh HTS OD600 -50 and rRNA inh HTS RFP 21.
Screening C[C@@H]1CN([C@@H](C)CO)C(=O)c2cccc(NC(=O)Nc3ccccc3)c2O[C@H]1CN(C)S(=O)(=O)c1ccccc1 returned rRNA inh HTS -1, rRNA inh HTS OD600 -9 and rRNA inh HTS RFP 1.3.
Screening COc1ccc(-c2cnc3c(c2)C(=O)N([C@H](C)CO)C[C@@H](C)[C@@H](CN(C)Cc2ccccn2)O3)cc1 returned rRNA inh HTS 0, rRNA inh HTS OD600 5 and rRNA inh HTS RFP -0.6.
`CC=Cc1ccc2n(c1=O)C[C@H]1[C@H](CO)[C@@H](C(=O)NCC3CC3)[C@@H]2N1C(=O)c1ccccc1` (mixture of isomers) gave rRNA inh HTS -2, rRNA inh HTS OD600 -6 and rRNA inh HTS RFP -0.4.
Screening C[C@@H]1CN([C@H](C)CO)C(=O)c2ccccc2-c2ccccc2CO[C@@H]1CN(C)Cc1ccc(Oc2ccccc2)cc1 returned rRNA inh HTS -1, rRNA inh HTS OD600 -6 and rRNA inh HTS RFP 0.3.
`C[C@@H]1CN([C@H](C)CO)C(=O)c2cccc(NC(=O)C3CCCCC3)c2O[C@@H]1CN(C)S(=O)(=O)c1cn(C)cn1` gave rRNA inh HTS -4, rRNA inh HTS OD600 0 and rRNA inh HTS RFP 1.8.
C[C@H]1CCCCO[C@H](CN(C)C(=O)Nc2ccccc2)[C@@H](C)CN([C@@H](C)CO)C(=O)c2cc(NS(=O)(=O)c3ccc(Cl)cc3)ccc2O1 was read as rRNA inh HTS -2, rRNA inh HTS OD600 -7 and rRNA inh HTS RFP 0.4.
For CCC(=O)N1CCCC(C)(C(=O)Nc2ccc3scnc3c2)C1 (stereo unspecified) the results were rRNA inh HTS 9, rRNA inh HTS OD600 7 and rRNA inh HTS RFP -0.5.
C[C@@H]1CN([C@@H](C)CO)C(=O)c2cc(NS(=O)(=O)c3cccs3)ccc2O[C@@H]1CN(C)Cc1ccc(Oc2ccccc2)cc1 was read as rRNA inh HTS -6, rRNA inh HTS OD600 -37 and rRNA inh HTS RFP 16.
COc1ccc(CN(C)C[C@H]2Oc3ccc(NC(=O)NC4CCCCC4)cc3CC(=O)N([C@@H](C)CO)C[C@@H]2C)cc1 was read as rRNA inh HTS -2, rRNA inh HTS OD600 -7 and rRNA inh HTS RFP 5.2.
`CCC(=O)N(C)C[C@@H]1[C@@H](c2ccc(C3=CCCCC3)cc2)[C@H](CO)N1C(=O)CC` gave rRNA inh HTS -2, rRNA inh HTS OD600 -18 and rRNA inh HTS RFP 2.0.
Screening Cc1noc(C)c1S(=O)(=O)N(C)C[C@H]1OCCCC[C@H](C)Oc2ccc(NC(=O)CCC(F)(F)F)cc2C(=O)N([C@@H](C)CO)C[C@H]1C returned rRNA inh HTS 0, rRNA inh HTS OD600 -5 and rRNA inh HTS RFP 0.5.
For O=C(Cc1cccnc1)N1CC(=O)N2[C@H](C1)[C@@H](c1ccc(C3=CCCCC3)cc1)[C@@H]2CO the results were rRNA inh HTS -17*, rRNA inh HTS OD600 0.9* and rRNA inh HTS RFP 1.2*.
For C[C@H](CO)N1C[C@H](C)[C@@H](CN(C)Cc2ccc(C(F)(F)F)cc2)Oc2ccc(NS(=O)(=O)c3ccccc3)cc2C1=O the results were rRNA inh HTS -2, rRNA inh HTS OD600 6 and rRNA inh HTS RFP -2.4.
Screening COc1ccc2c3c([nH]c2c1)[C@H](CO)N(C(=O)Nc1ccccc1F)CC31CN(C(=O)C2CC2)C1 returned rRNA inh HTS -4, rRNA inh HTS OD600 -1 and rRNA inh HTS RFP 2.5.
C[C@H](CO)N1C[C@H](C)[C@@H](CN(C)Cc2ccccc2)Oc2ncc(C#Cc3cccnc3)cc2C1=O was read as rRNA inh HTS -3, rRNA inh HTS OD600 -4 and rRNA inh HTS RFP -0.1.
For C[C@H](CO)N1C[C@H](C)[C@@H](CN(C)C(=O)Cc2ccccn2)Oc2ncc(-c3ccccc3)cc2C1=O the results were rRNA inh HTS 2, rRNA inh HTS OD600 5 and rRNA inh HTS RFP -0.3.
Screening CCC(=O)NC[C@H]1[C@@H](c2ccc(C3=CCCC3)cc2)[C@@H](CO)N1C(=O)C1CC1 returned rRNA inh HTS -2, rRNA inh HTS OD600 3 and rRNA inh HTS RFP -2.6.
`Cc1noc(C)c1NC(=O)Nc1ccc2c(c1)C(=O)N([C@@H](C)CO)C[C@H](C)[C@H](CN(C)S(C)(=O)=O)O2` gave rRNA inh HTS 2, rRNA inh HTS OD600 7 and rRNA inh HTS RFP 0.2.
Screening COc1ccccc1S(=O)(=O)N[C@H]1CC[C@H](CC(=O)N2CCN(C)CC2)O[C@@H]1CO returned rRNA inh HTS 3, rRNA inh HTS OD600 7 and rRNA inh HTS RFP 1.5.
`CNC[C@H]1OCCCC[C@@H](C)Oc2ccc(NC(=O)NC(C)C)cc2C(=O)N([C@H](C)CO)C[C@H]1C` gave rRNA inh HTS 7, rRNA inh HTS OD600 1 and rRNA inh HTS RFP -0.9.
C[C@@H]1CCCCO[C@@H](CN(C)S(=O)(=O)c2cn(C)cn2)[C@H](C)CN([C@H](C)CO)C(=O)c2cc(NC(=O)C3CCCCC3)ccc2O1 was read as rRNA inh HTS 1, rRNA inh HTS OD600 3 and rRNA inh HTS RFP -1.4.
`O=C(C[C@@H]1C[C@@H]2c3cc(NC(=O)C4CCOCC4)ccc3O[C@@H]2[C@H](CO)O1)NCc1cccc(F)c1` gave rRNA inh HTS 3, rRNA inh HTS OD600 3 and rRNA inh HTS RFP 3.5.
For COc1ccc(-c2ccc3c(c2)[C@@H]2[C@@H](CCN2S(=O)(=O)c2ccccc2C)[C@@H](CO)N3C)cc1 the results were rRNA inh HTS 1, rRNA inh HTS OD600 9 and rRNA inh HTS RFP 2.5.
Screening O=C(C1CCC1)N1C[C@H]2[C@@H](c3ccccc31)[C@H](CO)N2C(=O)Cc1ccccn1 returned rRNA inh HTS -4, rRNA inh HTS OD600 1 and rRNA inh HTS RFP -0.8.
OC(c1ccc(F)c(F)c1)c1ncc(-c2ccccc2F)[nH]1 (stereo unspecified) was read as rRNA inh HTS -2, rRNA inh HTS OD600 1 and rRNA inh HTS RFP -3.8.
Screening Cn1cnc([N+](=O)[O-])c1Sc1nnc(-c2ccccc2)c(-c2ccccc2)n1 returned rRNA inh HTS -7, rRNA inh HTS OD600 -24 and rRNA inh HTS RFP -15.
`COc1ccccc1NC(=O)N1CC(=O)N2[C@H](CO)[C@H](c3ccc(C#CCC(C)C)cc3)[C@H]2C1` gave rRNA inh HTS -5, rRNA inh HTS OD600 -35 and rRNA inh HTS RFP 27.
`O=C(NCCN1CCCC1)[C@@H]1N[C@@H]2c3ccc(C4=CCCCC4)c(=O)n3C[C@@H]2[C@H]1CO` gave rRNA inh HTS 2, rRNA inh HTS OD600 8 and rRNA inh HTS RFP -3.9.
For Cc1cccc(NC(=O)Nc2ccc3c(c2)C(=O)N(C)[C@@H]2CC[C@@H](CC(=O)NCc4ccccc4Cl)O[C@@H]2CO3)c1 the results were rRNA inh HTS 0, rRNA inh HTS OD600 2 and rRNA inh HTS RFP 4.8.
Screening Cc1ccccc1NC(=O)Nc1ccc2c(c1)C(=O)N(C)[C@H]1CC[C@@H](CC(=O)NCC3CC3)O[C@@H]1CO2 returned rRNA inh HTS 3, rRNA inh HTS OD600 0 and rRNA inh HTS RFP -0.7.
`O=C(Nc1cccc(F)c1)N1CC(=O)N2[C@H](CO)[C@H](c3ccc(C#Cc4cccnc4)cc3)[C@H]2C1` gave rRNA inh HTS -6, rRNA inh HTS OD600 0 and rRNA inh HTS RFP 0.8.
Screening N#C[C@H]1N[C@H](CO)[C@@H]1c1ccc(C2=CCCCC2)cc1 returned rRNA inh HTS 0, rRNA inh HTS OD600 2 and rRNA inh HTS RFP 0.6.
`O=C(C[C@@H]1C=C[C@@H](NS(=O)(=O)c2ccccc2)[C@@H](CO)O1)NCc1ccccc1F` gave rRNA inh HTS 4, rRNA inh HTS OD600 11 and rRNA inh HTS RFP 3.2.
Screening O=C(C[C@@H]1C=C[C@@H](NC(=O)Nc2ccc3c(c2)OCO3)[C@H](CO)O1)NCCCN1CCOCC1 returned rRNA inh HTS 3, rRNA inh HTS OD600 8 and rRNA inh HTS RFP -2.2.
CCC(C(=O)Nc1c(C)cccc1C)n1c(-c2ccc(=O)[nH]c2)nc2ccccc21 (stereo unspecified) was read as rRNA inh HTS 2, rRNA inh HTS OD600 12 and rRNA inh HTS RFP 1.0.
Screening C[C@@H]1CN([C@@H](C)CO)S(=O)(=O)c2ccc(C#CC(C)(C)O)cc2O[C@H]1CN(C)Cc1ccncc1 returned rRNA inh HTS -6, rRNA inh HTS OD600 -14 and rRNA inh HTS RFP 3.9.
`CN1OC[C@@H]2CN(Cc3ccc4c(c3)OCO4)[C@H](c3ccc(N4CCCCC4)cc3)C[C@@H]21` gave rRNA inh HTS -12, rRNA inh HTS OD600 -25 and rRNA inh HTS RFP 9.2.
O=C(Nc1ccc(F)cc1)N1CC(=O)N2[C@@H](CO)[C@H](c3ccc(C#CC4CC4)cc3)[C@@H]2C1 was read as rRNA inh HTS -21, rRNA inh HTS OD600 -53 and rRNA inh HTS RFP 19.
`O=C1CN(S(=O)(=O)c2ccccc2)C[C@H]2[C@H](c3ccc(Br)cc3)[C@H](CO)N12` gave rRNA inh HTS 0, rRNA inh HTS OD600 -12 and rRNA inh HTS RFP 2.4.
COc1ccccc1CNC(=O)c1cc(-c2cc(F)ccc2OC)n[nH]1 was read as rRNA inh HTS -19, rRNA inh HTS OD600 -46 and rRNA inh HTS RFP -5.5.
`C[C@H]1CN([C@@H](C)CO)C(=O)c2cc(NS(=O)(=O)c3cn(C)cn3)ccc2O[C@H]1CN(C)CC1CCCCC1` gave rRNA inh HTS 1, rRNA inh HTS OD600 3 and rRNA inh HTS RFP -1.4.
For C[C@@H]1CCCCO[C@H](CN(C)S(C)(=O)=O)[C@@H](C)CN([C@H](C)CO)C(=O)c2cc(NC(=O)Nc3cccc4ccccc34)ccc2O1 the results were rRNA inh HTS -1, rRNA inh HTS OD600 5 and rRNA inh HTS RFP 1.5.
`Cc1ccc(C(=O)O)cc1NCc1cccnc1` gave rRNA inh HTS 10, rRNA inh HTS OD600 10 and rRNA inh HTS RFP -0.1.
COCCN(C(=O)COC(=O)C12CC3CC(CC(O)(C3)C1)C2)c1c(N)n(Cc2ccccc2)c(=O)[nH]c1=O was read as rRNA inh HTS 13, rRNA inh HTS OD600 17 and rRNA inh HTS RFP 3.3.
`COc1ccccc1-c1ccc2c(c1)O[C@H](CN(C)C(=O)c1ccccc1)[C@H](C)CN([C@@H](C)CO)S2(=O)=O` gave rRNA inh HTS -6, rRNA inh HTS OD600 -19 and rRNA inh HTS RFP 0.8.
For CO[C@@H]1CN(C)C(=O)c2ccc(NS(C)(=O)=O)cc2OC[C@@H](C)N(C(=O)C2CCCCC2)C[C@H]1C the results were rRNA inh HTS 4, rRNA inh HTS OD600 5 and rRNA inh HTS RFP 0.3.
`O=C(NC1CCCCC1)[C@@H]1N[C@@H]2c3ccc(-c4cccc(F)c4)c(=O)n3C[C@@H]2[C@H]1CO` gave rRNA inh HTS -6, rRNA inh HTS OD600 -9 and rRNA inh HTS RFP 0.1.

Grouped by structure: the compounds so far containing an aryl methoxy group.
Screening COc1ccc(-c2cnc3c(c2)C(=O)N([C@H](C)CO)C[C@@H](C)[C@@H](CN(C)Cc2ccccn2)O3)cc1 returned rRNA inh HTS 0, rRNA inh HTS OD600 5 and rRNA inh HTS RFP -0.6.
COc1ccc(CN(C)C[C@H]2Oc3ccc(NC(=O)NC4CCCCC4)cc3CC(=O)N([C@@H](C)CO)C[C@@H]2C)cc1 was read as rRNA inh HTS -2, rRNA inh HTS OD600 -7 and rRNA inh HTS RFP 5.2.
Screening COc1ccc2c3c([nH]c2c1)[C@H](CO)N(C(=O)Nc1ccccc1F)CC31CN(C(=O)C2CC2)C1 returned rRNA inh HTS -4, rRNA inh HTS OD600 -1 and rRNA inh HTS RFP 2.5.
Screening COc1ccccc1S(=O)(=O)N[C@H]1CC[C@H](CC(=O)N2CCN(C)CC2)O[C@@H]1CO returned rRNA inh HTS 3, rRNA inh HTS OD600 7 and rRNA inh HTS RFP 1.5.
For COc1ccc(-c2ccc3c(c2)[C@@H]2[C@@H](CCN2S(=O)(=O)c2ccccc2C)[C@@H](CO)N3C)cc1 the results were rRNA inh HTS 1, rRNA inh HTS OD600 9 and rRNA inh HTS RFP 2.5.
`COc1ccccc1NC(=O)N1CC(=O)N2[C@H](CO)[C@H](c3ccc(C#CCC(C)C)cc3)[C@H]2C1` gave rRNA inh HTS -5, rRNA inh HTS OD600 -35 and rRNA inh HTS RFP 27.
COc1ccccc1CNC(=O)c1cc(-c2cc(F)ccc2OC)n[nH]1 was read as rRNA inh HTS -19, rRNA inh HTS OD600 -46 and rRNA inh HTS RFP -5.5.
`COc1ccccc1-c1ccc2c(c1)O[C@H](CN(C)C(=O)c1ccccc1)[C@H](C)CN([C@@H](C)CO)S2(=O)=O` gave rRNA inh HTS -6, rRNA inh HTS OD600 -19 and rRNA inh HTS RFP 0.8.

These rows are one share of the data, so the mix of outcomes need not match the whole.
